# STAT3 binder: STAT3 binders, primary screen, biochemical, small molecule microarray, single point, set 2. calls only. AID 624138, 2012. 17,000 compounds, 0.2% hits. His-STAT3 binding, anti-His fluorescence. Signal transducer and activator of transcription 3 (Homo sapiens), P40763;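 active means compounds whose four printed spots each show fluorescence over background unusually high for their array block, chance value under 7%; compounds were printed on slides so no solution concentration is given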;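 further: about 2 pmol printed per array spot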
# c-Myc SMM: binders of human c-Myc, primary screen, biochemical, small molecule microarray, anti-His fluorescence; calls only; AID 624141, 2012; His-c-Myc binding; 17,000 compounds, 1.5% hits;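 active means spot fluorescence over background with P-value below 7% in all four replicate spots, showing protein binding; compounds were printed on slides so no solution concentration is given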;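 further: score is binary with 100 for all four spots passing and 0 otherwise; about 2 pmol printed per array spot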
# Target sequence (P01106 whole entry, looked up): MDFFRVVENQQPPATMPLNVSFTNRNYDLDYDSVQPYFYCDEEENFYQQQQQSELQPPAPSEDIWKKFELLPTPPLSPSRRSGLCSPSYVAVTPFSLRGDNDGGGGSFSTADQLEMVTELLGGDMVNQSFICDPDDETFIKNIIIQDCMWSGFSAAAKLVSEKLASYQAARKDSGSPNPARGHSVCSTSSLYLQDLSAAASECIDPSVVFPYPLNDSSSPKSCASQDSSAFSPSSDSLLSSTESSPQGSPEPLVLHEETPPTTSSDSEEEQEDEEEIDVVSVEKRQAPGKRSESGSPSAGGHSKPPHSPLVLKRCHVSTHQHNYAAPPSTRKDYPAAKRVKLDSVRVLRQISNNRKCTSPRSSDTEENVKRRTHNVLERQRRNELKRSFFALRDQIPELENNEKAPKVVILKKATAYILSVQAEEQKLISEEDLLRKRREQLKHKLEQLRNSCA
# ID4 binder: binders of human ID4 protein, primary screen, biochemical, small molecule microarray, single point. DNA-binding protein inhibitor ID-4 (Homo sapiens), P47928. Flag-ID4 binding, fluorescence F/B. calls only. 31,000 compounds, 1.2% hits. AID 624137, 2012;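 active means spot signal over background at p below 0.07 in all four prints; compounds were printed on slides so no solution concentration is given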;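 further: a binder raises fluorescence above local background on the spot; about 2 pmol printed per array spot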
# Target sequence (P47928 whole entry, looked up): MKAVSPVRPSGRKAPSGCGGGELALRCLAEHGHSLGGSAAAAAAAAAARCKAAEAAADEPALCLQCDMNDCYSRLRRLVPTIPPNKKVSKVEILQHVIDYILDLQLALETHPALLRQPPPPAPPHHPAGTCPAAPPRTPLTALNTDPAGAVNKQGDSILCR
# p53 mut binder: binders of human mutant p53, primary screen, biochemical, small molecule microarray, anti-GST fluorescence. mutant tumor protein p53 (GST-tagged), Homo sapiens. small molecule microarray binding. calls only. 17,000 compounds, 0.4% hits. AID 624136, 2012;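 active means compounds whose four printed spots each glow above background more than chance allows, each with a p-value under 7%; compounds were printed on slides so no solution concentration is given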;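 further: about 2 pmol printed per array spot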
# Calls only; i = inactive; / = not tested or not shown; + = active, no number.
SMILES,STAT3 binder,c-Myc SMM,ID4 binder,p53 mut binder
C[C@H]1CN([C@@H](C)CO)C(=O)c2cccc(NC(=O)NC3CCCCC3)c2O[C@@H]1CN(C)S(=O)(=O)c1cccs1,i,i,i,i
CC(C)NC(=O)N(C)C[C@@H]1OCCCC[C@@H](C)Oc2ccc(NC(=O)CCC(F)(F)F)cc2C(=O)N([C@@H](C)CO)C[C@@H]1C,i,i,i,i
CC(C)NC(=O)N(C)C[C@H]1OCCCC[C@H](C)Oc2ccc(NC(=O)Nc3ccccc3)cc2C(=O)N([C@H](C)CO)C[C@@H]1C,i,i,i,i
CNC[C@H]1Oc2c(NS(=O)(=O)c3cccs3)cccc2C(=O)N([C@@H](C)CO)C[C@@H]1C,i,i,i,i
C[C@@H]1CN([C@@H](C)CO)C(=O)Cc2cc(NS(C)(=O)=O)ccc2O[C@H]1CN(C)CC1CC1,i,i,i,i
CC(C)NC(=O)Nc1ccc2c(c1)C(=O)N([C@@H](C)CO)C[C@@H](C)[C@@H](CN(C)C(=O)c1ccncc1)OCCCC[C@@H](C)O2,i,i,i,i
COC(=O)C1=C2CC[C@H](CO)NC(=O)N[C@H](Cc3ccccc3)C(=O)NCc3cn(nn3)C[C@@H](Cc3ccccc3)NC(=O)c3oc(c(C(=O)OC)c3C(=O)OC)CC[C@H](CO)NC(=O)N[C@H](Cc3ccccc3)C(=O)NCc3cn(nn3)C[C@@H](Cc3ccccc3)NC(=O)C(=C1C(=O)OC)O2,+,i,/,i
C[C@@H]1CCCCO[C@@H](CN(C)S(=O)(=O)c2ccccc2)[C@@H](C)CN([C@@H](C)CO)C(=O)c2cc(NC(=O)Nc3ccccc3)ccc2O1,i,i,i,i
O=c1c(-c2ccc(O)cc2)coc2cc(O[C@@H]3O[C@H](CO)[C@@H](O)[C@H](O)[C@H]3O)cc(O)c12,i,i,i,i
O=C(COc1cccc(C(F)(F)F)c1)Nc1cccnc1,i,i,i,i
CCO[C@@H]1OC(C(=O)N2CCCCCCC2)=C[C@H](C)[C@H]1CCCO,i,i,i,i
C[C@H](CO)N1C[C@H](C)[C@H](CN(C)C(=O)Nc2ccccc2F)OCc2cnnn2CCCC1=O,i,i,i,i
C[C@H](CO)N1C[C@H](C)[C@@H](CN(C)S(=O)(=O)c2ccccc2)Oc2c(NS(=O)(=O)c3cccs3)cccc2C1=O,i,i,/,i
Nc1nc(Cl)nc2c1ncn2C1OC(CO)[C@H](O)[C@H]1F (stereo partly drawn),i,i,/,i
O=C(CS(=O)(=O)Cc1ccccc1)Nc1ncccn1,i,i,i,i
C=CCOC(=O)[C@@H]1[C@H]2C(=O)O[C@H](c3ccccc3)[C@H](c3ccccc3)N2[C@H](c2ccc(OCCOC(=O)[C@@H]3C[C@@H]4C(=O)N[C@@H](CC(C)C)C(=O)N4[C@@H]3c3ccc(O)cc3)cc2)[C@@]12C(=O)Nc1ccc(I)cc12,i,i,/,i
Cc1ncc([N+](=O)[O-])n1CC(=O)Nc1ccc(F)cc1,i,i,i,i
CC(C)NC(=O)Nc1cccc2c1O[C@H](CN(C)Cc1ccc(Cl)c(Cl)c1)[C@@H](C)CN([C@@H](C)CO)C2=O,i,i,i,i
CNC[C@H]1Oc2ccc(NC(=O)C3CC3)cc2CC(=O)N([C@@H](C)CO)C[C@H]1C,i,i,i,i
C[C@@H]1CCCCO[C@H](CN(C)C(=O)c2ccncc2)[C@@H](C)CN([C@H](C)CO)C(=O)c2cc(NC(=O)Cc3ccccc3)ccc2O1,i,i,i,i
Cc1ccc(NC(=O)CSc2n[nH]c(-c3ccncc3)n2)cc1,i,i,i,i
Cc1ccc(O)c(NC(=O)CCN2C(=O)c3ccccc3C2=O)c1,i,i,i,i
O=C(O)c1c(Sc2ccccc2)c2cc(Cl)ccc2n1Cc1ccc(Cl)cc1,i,i,i,i
Cc1noc(C)c1NC(=O)N(C)C[C@@H]1Oc2ccc(NC(=O)Cn3cnnn3)cc2C(=O)N([C@@H](C)CO)C[C@@H]1C,i,i,i,i

# Record cards, as listed above. Values in the order: STAT3 binder | c-Myc SMM | ID4 binder | p53 mut binder
# `Cc1ccc(NC(=O)CSc2n[nH]c(-c3ccncc3)n2)cc1` as listed: i | i | i | i
# `C[C@@H]1CCCCO[C@H](CN(C)C(=O)c2ccncc2)[C@@H](C)CN([C@H](C)CO)C(=O)c2cc(NC(=O)Cc3ccccc3)ccc2O1` as listed: i | i | i | i
# `CC(C)NC(=O)N(C)C[C@@H]1OCCCC[C@@H](C)Oc2ccc(NC(=O)CCC(F)(F)F)cc2C(=O)N([C@@H](C)CO)C[C@@H]1C` as listed: i | i | i | i
# `O=C(COc1cccc(C(F)(F)F)c1)Nc1cccnc1` as listed: i | i | i | i
# `C[C@H]1CN([C@@H](C)CO)C(=O)c2cccc(NC(=O)NC3CCCCC3)c2O[C@@H]1CN(C)S(=O)(=O)c1cccs1` as listed: i | i | i | i

# Further compounds
SMILES,STAT3 binder,c-Myc SMM,ID4 binder,p53 mut binder
Cn1c(=O)c2c(ncn2CC(=O)N2CCN(C(=O)c3ccco3)CC2)n(C)c1=O,i,i,i,i
Cc1cc(C)nc(SCCCn2c(=O)[nH]c3ccccc32)n1,i,i,i,i
C=CC[C@@]12N=C(c3ccc(OCCCO)cc3)O[C@@H]1c1ccccc1N(CCS(=O)(=O)c1ccccc1)C2=O,i,i,i,i
C[C@@H]1CCCCO[C@@H](CN(C)C(=O)Cc2ccccc2)[C@@H](C)CN([C@H](C)CO)C(=O)c2cc(NC(=O)Nc3ccccc3)ccc2O1,i,i,i,i
C[C@H](CO)N1C[C@H](C)[C@@H](CN(C)C(=O)Nc2ccc3c(c2)OCO3)Oc2ccc(NC(=O)Cc3ccccc3)cc2CC1=O,i,i,+,i
CS(=O)(=O)CCNCc1nc(-c2ccc3ncnc(Nc4ccc(OCc5cccc(F)c5)c(Cl)c4)c3c2)cs1,i,i,i,i
C[C@@H]1CN([C@H](C)CO)C(=O)c2cc(NC(=O)Nc3ccc4c(c3)OCO4)ccc2O[C@H]1CN(C)Cc1ccc(C(F)(F)F)cc1,i,i,i,i
C[C@H]1CN([C@@H](C)CO)C(=O)c2cc(NC(=O)C3CC3)ccc2O[C@H]1CN(C)Cc1ccc(C(=O)O)cc1,i,i,i,i
C[C@@H]1CN([C@@H](C)CO)C(=O)c2cc(NS(C)(=O)=O)ccc2O[C@@H](C)CCCCO[C@@H]1CN(C)C(=O)CCC(F)(F)F,i,+,i,i
CNC[C@@H]1Oc2c(N)cccc2C(=O)N([C@H](C)CO)C[C@@H]1C,i,i,i,i
C[C@H]1CN([C@@H](C)CO)C(=O)Cc2cc(NS(=O)(=O)c3ccc(Cl)cc3)ccc2O[C@H]1CN(C)C(=O)NC1CCCCC1,i,i,i,i
O=C1N(Cc2ccccc2)Cc2ccccc2C[C@@]12N=C(c1ccc(OCCCO)cc1)O[C@H]2c1ccccc1,i,i,i,+
O=C(CSc1nc2ccc(NC(=O)c3ccccc3)cc2s1)Nc1ccccc1C(F)(F)F,i,i,i,i
C#CCNC(=O)C1=C[C@@H](C(C)(C)C)C[C@@H](OCc2ccc(CO)cc2)O1,i,i,/,i
C[C@H]1CN([C@@H](C)CO)C(=O)CCCn2cc(nn2)CO[C@@H]1CN(C)C(=O)Cc1ccccc1,i,i,i,i
C[C@H](CO)N1C[C@H](C)[C@@H](CN(C)C(=O)Nc2ccccc2)Oc2ccc(NC(=O)Cc3cn(C)c4ccccc34)cc2C1=O,i,i,i,i
C[C@H]1CN([C@@H](C)CO)C(=O)Cc2cc(N(C)C)ccc2O[C@H]1CN(C)S(=O)(=O)c1cccs1,i,i,i,i
Cc1noc(C)c1S(=O)(=O)Nc1ccc2c(c1)C(=O)N([C@@H](C)CO)C[C@@H](C)[C@H](CN(C)S(=O)(=O)c1cn(C)cn1)O2,i,i,/,i
CC(C)NC(=O)Nc1ccc2c(c1)C(=O)N([C@@H](C)CO)C[C@H](C)[C@@H](CN(C)C(=O)CCCN(C)C)OCCCC[C@H](C)O2,i,i,i,i
C[C@@H]1CN([C@H](C)CO)C(=O)c2cccc(NS(C)(=O)=O)c2O[C@H]1CN(C)Cc1ccc(Cl)c(Cl)c1,i,i,i,i
COc1cc2c(cc1OC)-c1onc(-c3ccc(OCCO)cc3)c1CCCN(CC(C)O)CC2 (stereo not drawn),i,i,i,i
Cc1cc(C(=O)Nc2cccc3c2O[C@@H](CN(C)Cc2ccc4c(c2)OCO4)[C@@H](C)CN([C@@H](C)CO)C3=O)n(C)n1,i,i,/,i
O=C1NC(c2ccccc2)(C(F)(F)F)C(=O)N1Cc1cccnc1 (stereo not drawn),i,i,i,i
C[C@@H]1CCCCO[C@H](CN(C)C(=O)c2ccccc2)[C@@H](C)CN([C@H](C)CO)C(=O)c2cc(NC(=O)Nc3ccc4c(c3)OCO4)ccc2O1,i,i,i,i
C=CC[C@@H]1/C=C(\C)C[C@H](C)C[C@H](OC)[C@H]2O[C@@](O)(C(=O)C(=O)N3CCCC[C@H]3C(=O)O[C@H](/C(C)=C/[C@@H]3CC[C@@H](O)[C@H](OC)C3)[C@H](C)[C@@H](O)CC1=O)[C@H](C)C[C@@H]2OC,i,i,/,i
C[C@H](CO)N1C[C@H](C)[C@H](CN(C)Cc2ccc(C(=O)O)cc2)OCCCC[C@H](C)Oc2ccc(NC(=O)c3ccncc3)cc2C1=O,i,i,i,i
C[C@@H]1CN([C@@H](C)CO)C(=O)c2cc(NC(=O)Nc3ccc(F)cc3)ccc2O[C@@H](C)CCCCO[C@@H]1CN(C)Cc1ccc(C(=O)O)cc1,i,i,i,i
C[C@@H]1CN([C@@H](C)CO)C(=O)Cc2cc(NC(=O)C3CC3)ccc2O[C@H]1CN(C)Cc1ccncc1,i,i,i,i
Cc1ccc(N(CC(=O)Nc2ccccc2-c2ccccc2)S(C)(=O)=O)cc1,i,i,i,i
C[C@@H]1CN([C@H](C)CO)C(=O)c2cc(N(C)C)ccc2O[C@@H]1CN(C)C(=O)Nc1ccc2c(c1)OCO2,i,i,i,i
C[C@@H]1CCCCO[C@@H](CN(C)S(=O)(=O)c2cccs2)[C@H](C)CN([C@@H](C)CO)C(=O)c2cc(NS(=O)(=O)c3cccs3)ccc2O1,i,i,i,i
COc1ccc(S(=O)(=O)N(C)C[C@@H]2Oc3ncccc3C(=O)N([C@H](C)CO)C[C@@H]2C)cc1,i,i,i,i
C[C@H]1CCCCO[C@@H](CN(C)C(=O)CCCN(C)C)[C@@H](C)CN([C@@H](C)CO)C(=O)c2cc(NC(=O)Nc3ccccc3)ccc2O1,i,i,i,i
CO[C@H]1O[C@H](CO)[C@@H](OC(=O)Nc2ccccc2-c2ccccc2)[C@H](OC(=O)Nc2ccccc2)[C@H]1OC(=O)Nc1ccccc1,i,i,i,i
C[C@@H]1CN([C@@H](C)CO)C(=O)Cc2cc(NC(=O)Nc3ccccc3)ccc2O[C@H]1CN(C)Cc1ccc(Cl)c(Cl)c1,i,i,/,i
C[C@@H]1CN([C@H](C)CO)C(=O)CCCn2cc(nn2)CO[C@@H]1CN(C)S(=O)(=O)c1cccs1,i,i,i,i
COc1ccc(S(=O)(=O)N(C)C[C@H]2Oc3ccc(NS(C)(=O)=O)cc3CC(=O)N([C@@H](C)CO)C[C@@H]2C)cc1,i,i,i,i
O=C(CCCCCC/C=C/c1ccc2c(c1)OCO2)N1CCCCC1,i,i,i,i
O=C(Cn1ncc2ccccc2c1=O)Nc1cccc([N+](=O)[O-])c1,i,i,i,i
C[C@H](CO)N1C[C@H](C)[C@@H](CN(C)C(=O)NC2CCCCC2)Oc2ccc(NC(=O)c3ccncc3)cc2C1=O,i,i,i,i
COc1ccc(-c2nnnn2C)cc1S(=O)(=O)NCc1ccccc1,i,i,i,i
C[C@@H]1CN([C@@H](C)CO)C(=O)c2cccc(NS(=O)(=O)c3cn(C)cn3)c2O[C@@H]1CN(C)S(=O)(=O)c1ccc(F)cc1,i,i,i,i
COc1ccc(CN(C)C[C@H]2Oc3c(NC(=O)NC4CCCCC4)cccc3C(=O)N([C@H](C)CO)C[C@H]2C)cc1,i,i,i,i
C[C@@H]1CN([C@@H](C)CO)C(=O)c2cc(NC(=O)CCN3CCOCC3)ccc2O[C@@H]1CN(C)C(=O)Nc1ccc2c(c1)OCO2,i,i,/,i
C[C@@H]1CN([C@H](C)CO)C(=O)Cc2cc(NC(=O)Nc3ccc(C(F)(F)F)cc3)ccc2O[C@H]1CN(C)S(=O)(=O)c1ccccc1,i,i,/,i
CCc1cc(C(C)=O)c(O)cc1OCCCCCC(C)(C)c1nn[nH]n1,i,i,i,i
CCn1c(SCC(=O)c2ccccc2)nnc1-c1ccco1,i,i,i,i
C[C@@H]1CCCCO[C@H](CN(C)Cc2ccccc2)[C@H](C)CN([C@H](C)CO)C(=O)c2cc(NS(C)(=O)=O)ccc2O1,i,i,i,i
CC(C)NC(=O)N(C)C[C@H]1OCCCC[C@H](C)Oc2ccc(NC(=O)Nc3cccc4ccccc34)cc2C(=O)N([C@H](C)CO)C[C@@H]1C,i,i,i,i
Cc1noc(C)c1S(=O)(=O)Nc1cccc2c1O[C@H](CN(C)Cc1ccc3c(c1)OCO3)[C@H](C)CN([C@H](C)CO)C2=O,i,i,i,i

# Source: PubChem (Broad Institute)

# Only part of the results is shown. The share of hits here may be higher or lower than overall.
